# Screening data from PubChem.
# HCMV NEC inh = inhibitors of HCMV UL50-UL53 nuclear egress complex interaction | HTRF UL50-UL53 interaction, normalized percent inhibition | 190,000 tested, 0.15% active | inhibition, % (concentration not given with the values) | AID 1918969;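 active means both replicates at 50% or more, plus weaker picks with an unusually low signal ratio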;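 further: stock transfer was 100 nL into about 20 µL; 0% = negative control wells and 100% = wells with untagged competitor protein; inactives centre near -12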
# Sa growth 42C = inhibitors of Staphylococcus aureus growth at 42 °C; 170,000 tested, 0.53% active; S. aureus RN4220 growth, OD600, 20 h; stronger effect = lower value; AID 720641; relative growth, % (concentration not given with the values);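 active means growth at 42 °C up to 50% and 20 or more points under that at 30 °C, or under 10% at both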;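 further: 300 nL library stock went into each well; scaled to the means of positive and negative controls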
# GIV Gai3 FP = inhibitors of GIV GBA-motif binding to rat Galpha-i3; P08753; Galpha-i3/FITC-GIV peptide fluorescence polarization, 90 min; stronger effect = lower value; scaled: aluminum fluoride 0%, vehicle 100%; percent of control (FP), % (test concentration not listed); 210,000 tested, 0.42% active;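 active means replicate mean at 85% of control or lower, very high polarization wells dropped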;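 further: wells of about 15 µL received 100 nL stock; the first replicate is given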
# Target sequence (P08753 whole entry, looked up): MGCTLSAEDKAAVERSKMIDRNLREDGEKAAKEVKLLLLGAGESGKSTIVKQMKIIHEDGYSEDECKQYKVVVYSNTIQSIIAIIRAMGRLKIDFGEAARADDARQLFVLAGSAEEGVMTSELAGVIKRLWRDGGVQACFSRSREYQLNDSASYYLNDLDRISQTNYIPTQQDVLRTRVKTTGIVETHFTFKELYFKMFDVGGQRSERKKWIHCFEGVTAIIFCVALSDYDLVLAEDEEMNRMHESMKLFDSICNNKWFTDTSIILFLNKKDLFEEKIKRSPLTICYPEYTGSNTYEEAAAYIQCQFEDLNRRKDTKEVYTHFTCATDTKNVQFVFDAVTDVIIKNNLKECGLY
# Sa growth 42C second temp = also measured in Sa growth 42C; calls as there; relative growth, %; measured here: growth at 30 °C;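 optical density after 20 h as mean of two plates; 100% = untreated growth and lower means inhibition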
# The depositor's hits bear a star; x = not tested or not shown; & = joins results of further samples.
SMILES,HCMV NEC inh,Sa growth 42C,Sa growth 42C second temp,GIV Gai3 FP
Cc1c(C(=O)Nc2ccc(F)c(C(F)(F)F)c2)sc2nc(-c3ccccc3)cn12,x,98,100,109
CN(C)/C=N/c1nnc(SCC(=O)Nc2cc(Cl)cc(Cl)c2)s1,1,85,85,103
c1ccc(Nc2c(-c3ccccc3)nc3nc[nH]n23)cc1,2,105,96,105
COC(=O)c1sccc1S(=O)(=O)Nc1ccc2c(c1)OCCO2,-9,119,89,106
CSc1nc2cc(C)nn2c(-c2ccco2)c1C#N,-28,102,91,102
COC(=O)c1cn(C(=O)CCc2ccccc2)c2ccccc12,x,115,76,103
CCOC(=O)C1=C(CN2CCN(CC)CC2)NC(=O)NC1c1ccc(Cl)cc1 (stereo unspecified),-14,110,89,109
COCCNC(=O)Cn1c(=O)n(CCCCCC(=O)NCc2ccc3c(c2)OCO3)c(=O)c2sccc21,-4,110,88,104
COc1ccc(NC(=O)NCc2ccccc2)cc1,1,91,95,103
CCN1C(=O)C(C(=O)c2ccc(OC)cc2)SC1=S (stereo unspecified),-48,86,60,250
NC(=O)COC(=O)/C=C/c1ccc2ccccc2n1,-3,87,87,x
Cc1ccc(Cn2c(CNC(=O)c3ccc(Cl)c([N+](=O)[O-])c3)nc3cccnc32)cc1,x,97,87,122

# Another view of two compounds above:
Molecule: CN(C)/C=N/c1nnc(SCC(=O)Nc2cc(Cl)cc(Cl)c2)s1
  HCMV NEC inh: 1; Sa growth 42C: 85; Sa growth 42C second temp: 85; GIV Gai3 FP: 103
Molecule: Cc1ccc(Cn2c(CNC(=O)c3ccc(Cl)c([N+](=O)[O-])c3)nc3cccnc32)cc1
  HCMV NEC inh: x; Sa growth 42C: 97; Sa growth 42C second temp: 87; GIV Gai3 FP: 122

# Next part:
SMILES,HCMV NEC inh,Sa growth 42C,Sa growth 42C second temp,GIV Gai3 FP
O=C(NCc1ccc2c(c1)OCO2)c1ccc2c(=O)n(CCC3=CCCCC3)c(=O)[nH]c2c1,0,96,90,101
CCCC(=O)N1CCCC(c2nc3c(nnn3Cc3ccccc3)c(=O)[nH]2)C1 (stereo unspecified),18,126,98,105
CCOC(=O)c1cnc2ccc(C(=O)OC)cc2c1NCc1ccco1,-24,94,83,102
COc1ccc(C(=O)COc2ncnc3cc(Cl)ccc23)cc1,-26,92,86,102
Nc1nonc1-c1nc2ccccc2n1CC(=O)Nc1ccccc1C(=O)O,-6,117,82,106
Cc1cc(C)c(NC(=O)Cn2c(=O)n(Cc3ccc(C(=O)NCc4ccco4)cc3)c(=O)c3sccc32)c(C)c1,5,104,94,110
O=C(NCc1ccco1)c1ccc(Cn2c(SCc3ccccc3F)nc3cccnc32)cc1,x,122,97,103
COc1ccc(NC(Cc2ccccc2)c2ccco2)cc1 (stereo unspecified),-28,86,66,107
O=C(CCCn1c(=O)c2ccccc2n(Cc2cccc(F)c2)c1=O)NCc1ccccc1Cl,-16,98,92,99
Cc1c(C(=O)NCc2ccco2)cc(-c2ccccc2)n1CCCN1CCOCC1,-2,102,105,99
O=S(=O)(Nc1ccc(-c2nnc3n2CCCCC3)cc1)c1ccc(Br)cc1,-9,78,92,x
CCOc1nc(Nc2ccccc2)nc(OCC)n1,12,76,119,101

# Entries shown so far that contain a Cl atom:
SMILES,HCMV NEC inh,Sa growth 42C,Sa growth 42C second temp,GIV Gai3 FP
CN(C)/C=N/c1nnc(SCC(=O)Nc2cc(Cl)cc(Cl)c2)s1,1,85,85,103
CCOC(=O)C1=C(CN2CCN(CC)CC2)NC(=O)NC1c1ccc(Cl)cc1 (stereo unspecified),-14,110,89,109
Cc1ccc(Cn2c(CNC(=O)c3ccc(Cl)c([N+](=O)[O-])c3)nc3cccnc32)cc1,x,97,87,122
COc1ccc(C(=O)COc2ncnc3cc(Cl)ccc23)cc1,-26,92,86,102
O=C(CCCn1c(=O)c2ccccc2n(Cc2cccc(F)c2)c1=O)NCc1ccccc1Cl,-16,98,92,99

# Following part.
SMILES,HCMV NEC inh,Sa growth 42C,Sa growth 42C second temp,GIV Gai3 FP
CCCC(=O)Nc1nnc(-c2ccccc2F)s1,-5,102,93,x
O=C(Nc1cccc(C(=O)OCc2cc(=O)n3nc(C4CC4)sc3n2)c1)c1cccc(Cl)c1,x,73,79,105
COc1ccc(-c2nc(-c3cc4cc(Br)ccc4oc3=O)cs2)cc1,x,121,92,107
CCCCNc1nc2ccccc2n1CC(=O)N1CCc2ccccc21,-29,65,94,x
Cc1ccc(-n2cnc3cc(C(=O)NC4CCCCCC4)ccc32)c(C)c1,x,115,68,102
Fc1ccc(OCc2nnc3sc(-c4ccc(Cl)cc4)nn23)cc1,12,x,x,111
CC(C)(C)S(=O)(=O)/C(C#N)=C/c1cc2ccccc2o1,-5,102,75,98
CSc1ccc(CCNC(=O)c2ccc3c(Cl)c4c(nc3c2)CCCC4)cc1,-33,100,88,96
COc1ccc(CCN2C(=O)CC(C(=O)Nc3ccccc3OC)SC2=Nc2ccccc2)cc1 (stereo unspecified),-8,x,x,105
COc1ccc(NC(=O)CSc2nc(-c3cc(OC)c(OC)c(OC)c3)[nH]c2-c2ccc(F)cc2)cc1,-9,112,73,103
O=C(Nc1cccc(-c2nnc3n2CCCCC3)c1)C1=CN2CCS(=O)(=O)N=C2C=C1,5,107,100,x
CC(=O)Nc1nonc1-c1nnc(SCC(=O)Nc2cc(Cl)ccc2C)n1C,13,88,87,105
CCCC12CN3CC(CCC)(CN(C1)C3c1ccc(OC(C)C)cc1)C2=O (stereo unspecified),-22,92,85,105
CCCN(CCC)C(=O)CSc1nc2ccccc2c(=O)n1Cc1ccc2c(c1)OCO2,8,89,78,98
Nc1cc(=O)[nH]c(=O)n1-c1ccccc1,-22,86,87,101
Cc1ccc(S(=O)(=O)N2CCCC(NC(=O)N3CCN(c4ccccc4)CC3)C2)cc1 (stereo unspecified),-8,96,83,103
O=C(Cn1c(SCc2ccc(F)cc2)nc2cccnc21)Nc1cccc(F)c1,-1,x,x,105
COc1cccc(NC(=O)CCC(=O)O)c1,-4,85,85,101
COc1ccccc1C(=O)OCC(=O)NCc1ccccc1,10,115,98,x
Cc1ccc(N2CCN(C(=O)c3cccn4c(=O)c5ccc(Cl)cc5nc34)CC2C)cc1 (stereo unspecified),x,107,89,107
O=C(O)c1cccc(NC(=O)c2cccc(S(=O)(=O)Nc3cccc(F)c3)c2)c1,36,100,111,104
COc1ccc(N(CC(=O)O)S(=O)(=O)c2ccc3[nH]c(=O)c(=O)[nH]c3c2)cc1,-4,106,87,x
Cc1cccc(OCCCC(=O)Nc2sc3c(c2C(N)=O)CCC(C)C3)c1 (stereo unspecified),-30,112,89,100
CC(C)c1ccc(NC(=O)C2CC(=O)N=C(N)S2)cc1 (stereo unspecified),-9,111,85,x
O=C(NCc1ccc(Cl)cc1)c1cc2sccc2n1Cc1ccc(F)cc1,x,106,89,104
O=C(NC1CCCC1)c1cnc2sccn2c1=O,-6,x,x,106
CCC1Oc2ccccc2N(CC(=O)N(C)Cc2ccccc2)C1=O (stereo unspecified),5,91,78,106
COc1ccc(-n2nc(C(=O)N3CCN(c4ccccc4F)CC3)c(=O)n(C)c2=O)cc1,-7,x,x,101
CC(C)c1noc(-c2ccccc2OCC(=O)Nc2cccc([N+](=O)[O-])c2)n1,-25,89,86,103
O=C1OC(N2CCc3ccccc3C2)c2ccccc21 (stereo unspecified),x,112,93,106
O=C(CC1N=C2c3ccccc3N=C(SCc3ccc(Cl)cc3)N2C1=O)NC1CCCCC1 (stereo unspecified),x,89,93,102
S=c1nc[nH]c2c1cnn2-c1ccccc1,-6&-9,100,84,108
OCCn1c(CCCCc2nc3ccccc3n2CCO)nc2ccccc21,-16,97,86,105
O=C(c1ccc(F)cc1)N1CCN(CCc2ccncc2)CC1,-11&22,108,92,104&105
CN(C)/C=N/S(=O)(=O)c1cc(Cl)sc1Cl,1,97,97,108
COc1ccc(S(=O)(=O)N(CC(=O)Nc2cccc(C(F)(F)F)c2)c2ccc(C)cc2)cc1,-25,89,78,101
C1CCC2(C1)OCC1(CO2)COC2(CCCC2)OC1,-31,99,92,105
Cc1nc2sccn2c(=O)c1S(=O)(=O)NCc1ccccc1,-4,108,90,105
COc1ccc(-c2noc(CN3CCN(c4ccccc4OC)CC3)n2)cc1OC,-24,100,88,100
CC1CCN(C(=O)c2ccccc2NC(=O)c2nsc3ccccc23)CC1,x,97,100,105
CN(C)c1ccc(/C=C2\SC(=S)NC2=O)cc1,-28,85,92,x
CCC(c1nnnn1C1CCCC1)N1CCN(Cc2ccccc2)CC1 (stereo unspecified),19,98,121,104
CCCN1CCN(C(=O)C2CCN(S(=O)(=O)c3cc(-c4noc(CC)n4)sc3C)CC2)CC1,-9,x,x,103
O=C(CSc1nc2c(c(=O)[nH]1)CN(Cc1ccc3c(c1)OCO3)CC2)Nc1cccc(Cl)c1,-19,102,95,101
CCCN1CCC(NN2CCOCC2)CC1,-3,65,61,106
CC1CCN(Cc2cccn2-c2nnc(N3CCN(c4ccccc4)CC3)s2)CC1,-2,x,x,99
Cc1ccc(NC(=O)C2CCCN(S(=O)(=O)c3cccs3)C2)c(C)c1 (stereo unspecified),x,112,83,106
COc1ccc2c(CNCCc3cccs3)c(C(=O)O)n(Cc3ccccc3)c2c1,x,98,85,106
Cc1csc(/C(=N\O)c2csc(C)n2)n1,-32,71,92,x
O=C(O)CNC(=O)/C=C/c1ccccc1F,x,97,97,103
Cc1cccc(NC(=O)CC2C(=O)NCCN2C(=S)Nc2ccccc2)c1 (stereo unspecified),-29,112,107,104
O=c1oc2cc(O)ccc2cc1-c1nc(-c2ccc(Cl)c(Cl)c2)cs1,x,89,93,-69*
CC1=C(C(=O)Nc2cccc(Cl)c2C)C2(CCCCCC2)OC1=O,x,102,107,103
O=C(NC1CC1)C1CC(=O)N(C2CCCCC2)C1 (stereo unspecified),2,84,86,100
Cc1c(C(=O)NC2CCCC2)oc2ccc3c(c12)C=CC1(CCCC1)O3,x,115,97,100
CCOC(=O)c1c(C)oc2nc(C)nc(NCCc3ccc(S(N)(=O)=O)cc3)c12,x,102,86,107
O=C(NCC1COc2ccccc2O1)c1cc2c(s1)-c1ccccc1OC2 (stereo unspecified),x,102,61,101
Brc1ccc(/C=C2\CCC(C3=CCCC3)=C2N2CCOCC2)cc1,4,120,98,x
CN(C(=O)Cn1cccc1C1=NC(c2ccccc2)CO1)c1ccccc1 (stereo unspecified),5,97,98,105
CC(C)(C)c1ccc(-n2nnnc2-c2ccccc2)cc1,-2,100,100,120

# Given field by field: 4 of the compounds above.
SMILES: CC1CCN(C(=O)c2ccccc2NC(=O)c2nsc3ccccc23)CC1
  HCMV NEC inh: x
  Sa growth 42C: 97
  Sa growth 42C second temp: 100
  GIV Gai3 FP: 105
SMILES: CN(C)c1ccc(/C=C2\SC(=S)NC2=O)cc1
  HCMV NEC inh: -28
  Sa growth 42C: 85
  Sa growth 42C second temp: 92
  GIV Gai3 FP: x
SMILES: CCC(c1nnnn1C1CCCC1)N1CCN(Cc2ccccc2)CC1 (stereo unspecified)
  HCMV NEC inh: 19
  Sa growth 42C: 98
  Sa growth 42C second temp: 121
  GIV Gai3 FP: 104
SMILES: CCCN1CCN(C(=O)C2CCN(S(=O)(=O)c3cc(-c4noc(CC)n4)sc3C)CC2)CC1
  HCMV NEC inh: -9
  Sa growth 42C: x
  Sa growth 42C second temp: x
  GIV Gai3 FP: 103

# Later entries.
SMILES,HCMV NEC inh,Sa growth 42C,Sa growth 42C second temp,GIV Gai3 FP
O=C(/C=C/c1ccccc1)Nc1ccc2c(c1)OCCO2,-32,151,103,100
Cc1cc(C(F)(F)F)nc2snc(Br)c12,x,99,89,102
CC1CCCC(NC(=O)CN2C(=O)/C(=C\c3ccccc3Cl)Oc3ccccc32)C1C (stereo unspecified),x,83,91,99
CC(C)Cn1c(=O)c2sccc2n2c(=S)[nH]nc12,-14,x,x,101
NC(=O)CSc1nccn2nc(-c3ccc(Cl)cc3)cc12,-8,x,x,104
COc1ccc(C(C)C)cc1S(=O)(=O)N1CCCCC1C (stereo unspecified),-7,104,98,103
Cc1cccc(C)c1NC(=O)CNC(=O)C(C)Oc1ccccc1C#N (stereo unspecified),17,78,92,x
CCOc1cc(C2C(C(=O)Nc3ccc(OC)cc3)=C(C)Nc3nc(SC)nn32)ccc1O (stereo unspecified),-24,97,105,102
O=C1CN(CC(=O)NC(=O)NCc2ccccc2)CCN1,-23,89,91,x
C=CCn1c2ccccc2c2nnc(SCC(=O)Nc3ncc([N+](=O)[O-])s3)nc21,-36,x,x,99
Cc1ccc(NC(=O)CSCc2nc3cccnc3n2C2CCCCC2)c(C)c1,-3,x,x,114
C=CCN1C=C/C(=C\C=C(C#N)C#N)c2ccccc21,-125,93,86,157
COc1cc(OC)c(NC(=O)CC(C)S(=O)(=O)c2ccc3c(c2)NC(=O)CO3)cc1Cl (stereo unspecified),x,102,80,104
Cc1ccc(N(C(=O)c2ccccn2)C2(C(=O)Nc3c(C)cccc3C)CCCCC2)cc1,-4,109,90,x
Cc1c(C)c(O)c(Cc2nc3ccccc3[nH]2)c(C)c1O,-11,19,2,x
c1ccc(-c2oc3ncn4ncnc4c3c2-c2ccccc2)cc1,-20,106,101,107
COc1cc(NC(=O)c2noc3c2CSc2ccccc2-3)cc(OC)c1OC,17,94,96,108
Cc1cc(C(=O)Nc2ccc(Cl)cc2)no1,-8,82,44,103
CC1Cc2cc(S(=O)(=O)CCC(=O)Nc3cccc(F)c3)ccc2N1C(=O)C1CC1 (stereo unspecified),x,165,91,103
CC(CCc1ccccc1)NC(=O)CSc1n[nH]c(-c2ccccc2Cl)n1 (stereo unspecified),x,142,94,102
CCN1C(=O)/C(=C2\SC(=O)N(Cc3ccccc3)C2=O)c2ccccc21,-18,92,82,102
